# Screens as filed in PubChem BioAssay.
# Anaer choline gr – choline-fed anaerobic bacterial growth inhibition. Gram-negative bacterium anaerobic choline minimal medium, absorbance growth; active compounds read low; many inactives read as strong as hits in the columns shown. calls only. 55,000 tested, 0.2% active;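 active means growth z-score on choline under -2 at 7 or 20 h with little or no fall on glycerol, limits in tiers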;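 further: stock transfer was 300 nL into about 50 µL; the organism is E. coli; final concentration not given here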
# Anaer choline gr early – also measured in Anaer choline gr; calls as there; z-score; measured here: choline growth z-score, timepoint 1;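 score of optical density at 7 h as mean of two plates; lower means less growth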
# The depositor's hits bear a star; i = inactive.
SMILES,Anaer choline gr,Anaer choline gr early
CCCC[C@@H](C=O)NC(=O)[C@H](CC(C)C)NC(=O)[C@H](CC(C)C)NC(C)=O,i,-0.04
Cc1ccc(COc2cc(C(=O)NCc3ccccn3)c3ccccc3n2)cc1,i,1.09
CCCn1nc2ccc(S(=O)(=O)N3CCSCC3)cn2c1=O,i,-0.58
COCCN[C@H]1CS(=O)(=O)C[C@@H]1S(=O)(=O)c1ccc(F)cc1,i,-0.37
O=C(NCCc1csc2nc(-c3cccc(F)c3)nn12)c1cccc(Br)c1,i,-1.52
Cc1ccc(Cl)cc1N1CCN(S(=O)(=O)c2cc(-c3cc(C(F)(F)F)on3)cs2)CC1,i,0.97
COC(=O)c1cccc(NC(=NCc2ccncc2)NC(=O)c2cc(OC)cc(OC)c2)c1,i,-0.86
COc1ccc(OC)c(CCNc2nc(-c3ccc(OC)c(OC)c3)no2)c1,i,-0.61
Cc1ccc(NC(=O)c2sc3nc(-c4ccc(F)cc4)cn3c2C)cc1,i,1.87
O=c1c(Nc2ccc(F)cc2)c(-c2ccccc2)c1=O,i,-2.35
COc1ccc(NC(=O)c2ccc(Oc3nccnc3Oc3ccc(C)cc3)cc2)cc1,i,0.05
O=C(c1cc(F)c(F)cc1Cl)N1CCCC1c1ccc(F)cc1 (stereo not given),i,0
O=C(NCCCc1ccccc1)c1ccc(CN2CC(=O)N3CCCCC3C2=O)cc1 (stereo not given),i,0.3
COc1ccc(Br)cc1C1CC(=O)Nc2c1c(C)nn2-c1nc2ccccc2o1 (stereo not given),i,-0.08
CN1CCN(c2ccc(NS(=O)(=O)c3cc(F)ccc3F)cc2C(=O)O)CC1,i,0.31
O=S1(=O)N=CNc2ccc(S(=O)(=O)N3CCc4ccccc43)cc21,i,1.01
COc1ccc(C2N3CC4(C)CN2CC(C)(C3)C4O)cc1OC (stereo not given),i,-0.08
Cc1cc(C(=O)NC(C)c2ccccc2)c2c(=O)n(C)c(=O)n(C)c2n1 (stereo not given),i,-0.03
CCc1cc(C2CCCN2S(=O)(=O)c2cc(OC)ccc2OC)on1 (stereo not given),i,1.87
O=S(=O)(c1cc(-c2noc(C3CCC3)n2)cs1)N1CCCCC1,i,-0.03
O=C(Cn1ccn2nc(-c3ccc4c(c3)OCO4)cc2c1=O)N1CCC(Cc2ccccc2)CC1,i,1.09
CC1CCCCC12Nc1ccccc1NC2=NCc1cc(F)cc(F)c1 (stereo not given),i,-0.71
COc1ccc(-n2nnnc2C2CCN(S(=O)(=O)c3c(C)c(C)cc(C)c3C)CC2)cc1,i,-0.06
O=C(Nc1cc(F)c2[nH]c(=O)ccc2c1)c1cccc(F)c1,i,-0.13
CSc1ccccc1NC(=O)C1CC(=O)N(c2ccc3c(c2)CCN3C(=O)C2CC2)C1 (stereo not given),i,-1.47
COc1ccc(-c2noc(Cc3nc(-c4ccc(Br)cc4)cs3)n2)cc1,i,2.05
CCCc1nn2c(=O)cc(CN(Cc3ccc(C)cc3)CC(C)C)nc2s1,i,0.28
CCOC(=O)CC1(NC(=O)NCCc2nc(-c3ccc(OC)cc3)n[nH]2)CCCCC1,i,0.74
COc1ccc(S(=O)(=O)NC2CCN(C(=O)c3ccc(OC)c(OC)c3)CC2)cc1,i,0.19
C=CCSc1ncc(Cl)c(C(=O)Nc2scc(-c3ccc(C)cc3)c2C(=O)OCC)n1,i,1.11
CN1CCC(N(C)C(=O)c2cc3cccnc3n(Cc3ccc(F)cc3)c2=O)CC1,i,0.46
Cc1ccccc1N1C(=O)C(Oc2ccc(Cl)cc2)C1CNCCCOC(C)C (stereo not given),i,0.59
Cc1ccc(NC(=O)C2CCN(S(=O)(=O)c3cc(-c4noc(C(C)C)n4)sc3C)CC2)cc1F,i,0.97
CCOC(=O)c1cc2ccccc2o1,i,-0.18
O=S(=O)(Nc1nc2n(n1)C(c1ccc(Cl)cc1)C=C(c1ccccc1)N2)c1ccc(Cl)cc1 (stereo not given),i,-1.55
O=C(c1ccc(F)cc1)N1CCN(c2nc3cc(Br)ccc3n3cccc23)CC1,i,0.59
CC(C)NC(=O)CN1C(=O)CCn2nc(-c3cn(C)c4ccccc34)cc21,i,-0.35
COC(=O)c1ccccc1NC(=O)Cn1nnc2sc3c(c2c1=O)CCCC3,i,-0.54
O=S(=O)(NC1CCCCC1)c1ccc2c(c1)CCN2,i,0.04
Cc1ccc(-c2c(C(F)(F)F)nn3c(NC4CCCC4)cc(C)nc23)cc1,i,-1.08
O=S(=O)(c1ccc(-c2cnc(C3CC3)o2)s1)N1CCCCC1,i,-1.7
CC(C)CCNC(=O)c1ccc2c(c1)N(Cc1ccccc1)C(=O)CS2=O (stereo not given),i,1.56
CC1=C(C(=O)Nc2ccccc2C(=O)NCCCN2CCC(N3CCCCC3)CC2)SCCO1,i,0.37
COc1ccc(NC(=O)N2CCN3CCCCC3C2)cc1OC (stereo not given),i,-0.69
CCCn1nnc2cc(C(=O)NCCC(=O)Nc3ccc(S(N)(=O)=O)cc3)ccc21,i,-0.49
CCC(=O)Nc1ccccc1-c1nnc(SC(CC)C(=O)Nc2ccc3c(c2)OCCO3)[nH]c1=O (stereo not given),i,-0.52
c1cc(-c2nc(-c3ccc(-c4csc(C5CC5)n4)cc3)no2)ccn1,i,0.19
Cc1cn2c(=O)cc(COc3ccc(Cl)cc3NC(=O)CC(C)C)nc2s1,i,0.93
CS(=O)(=O)N1CCC(C(=O)N2CCOCC2)Oc2ccccc21 (stereo not given),i,0.79
O=C(Nc1ccccc1)c1nnc(C2CCN(C(=O)NC3CCCCC3)CC2)s1,i,0.23

# An excerpt of these results, with two lines to a compound.
# Order of values – Anaer choline gr, Anaer choline gr early
> Cc1ccc(COc2cc(C(=O)NCc3ccccn3)c3ccccc3n2)cc1
  i, 1.09
> Cc1ccc(-c2c(C(F)(F)F)nn3c(NC4CCCC4)cc(C)nc23)cc1
  i, -1.08

# Entries shown so far containing a CF3 group:
SMILES,Anaer choline gr,Anaer choline gr early
Cc1ccc(Cl)cc1N1CCN(S(=O)(=O)c2cc(-c3cc(C(F)(F)F)on3)cs2)CC1,i,0.97
Cc1ccc(-c2c(C(F)(F)F)nn3c(NC4CCCC4)cc(C)nc23)cc1,i,-1.08

# Next entries:
SMILES,Anaer choline gr,Anaer choline gr early
CCOc1ccc2nc(N3CCC(C(=O)NCc4ccccn4)CC3)sc2c1,i,-1.67
Cc1cc(NC(=O)C(C)C)n(-c2ncnc3c2cnn3-c2cccc(Cl)c2)n1,i,0.04
O=C(Nc1cccc(Cl)c1)C1CCN(c2nccn3nc(-c4ccc(F)cc4)cc23)CC1,i,1.13
Cn1c(C2=C(O)CN(c3cccc(Cl)c3)C2=N)nc2ccccc21,i,0.13
O=C(NC1CCCCC1)c1cccc(-c2cc(N3CCCC3)ncn2)c1,i,-0.9
Cc1cc(N2CCCC2)n2ncnc2n1,i,-0.98
COCc1nnc(C(=O)Nc2cccc(C(=O)N3CCN(c4ccccn4)CC3)c2)s1,i,0.17
Cc1oc2ccc(O)c(CN3CCCCC3)c2c1C(=O)NC1CCCC1,i,-0.01
Cc1c(C)n(-c2cccc(Cl)c2)c2ncnc(Cl)c12,i,1.21
CCN(CC)C(=O)c1ccc(-c2nc3cc(NS(=O)(=O)c4ccc(F)cc4F)ccc3n2C)cc1,i,0.29
CN(CCc1noc(COc2ccccc2F)n1)C(=O)C1CCC1,i,-0.55
CCCn1c(C)ccc(-c2noc(CCCC(=O)NC(C)c3ccc(C)cc3)n2)c1=O (stereo not given),i,1.43
CCSc1nnc(-c2nn(C)c3c2CN(C(=O)c2ccccc2Br)CC3)n1C,i,1.09
Cn1nc(C(=O)NCCCN2CCN(C3CCCCC3)CC2)c2c1-c1ccccc1SC2,i,1.36
CCc1cc2c3c([nH]c2cc1S(=O)(=O)NCC1CCCO1)CCCC3=O (stereo not given),i,0.51
Cc1nc(-c2cc(NC(=O)c3ccc(C(C)(C)C)cc3)c(C)s2)no1,i,-0.41
CCOC(=O)c1c(NC(=O)c2nc(SC(C)C)ncc2Cl)sc2c1CCCC2,i,0.33
Cc1nc(CNC(=O)[C@H]2CCCN2C(=O)Cc2ccc(F)cc2)cs1,i,-0.96
CCCn1nc(-n2cnnc2)c(NS(=O)(=O)c2ccc(Br)s2)c1C,i,-1.4
CN1CCC(N2CCN(C(=O)C3CCN(c4cncnc4N4CCCC4)CC3)CC2)CC1,i,0.8
O=C(Nc1ccc(F)cc1)c1cccc(Nc2ncc(-c3cccc(F)c3)cn2)c1,i,0.05
CN1CCN(c2cc(C(=O)O)c3cc(NC(=O)C4CC4)ccc3n2)CC1,i,0.74
CCn1nc(C)c(CCN(C)C(=O)Nc2ccc3c(c2)OCCO3)c1C,i,0.7
Cc1cc(N2CCCCC2)n2nc(CN3CCN(C(C)C)CC3)nc2n1,i,0.89
O=c1ccc(-c2ccccc2)nn1CCc1nc(-c2ccc(Cl)cc2)no1,i,0.84
Cc1noc2nc(CCC(=O)O)nc(N3CCOCC3)c12,i,-0.37
c1cc(-c2csc(C3CC3)n2)cc(-c2noc(-c3cnccn3)n2)c1,i,1.69
CCOC(=O)Cn1c(=O)n(-c2ccc(F)cc2)c2nc(-c3cc(F)ccc3F)nc(C(N)=O)c21,i,0.3
Cc1cc(SC(C)C(=O)N2CCc3ccccc32)nc2ccc(S(=O)(=O)N3CCCCC3)cc12 (stereo not given),i,0.27
CCOc1ccc(-c2noc(Cc3nc(-c4ccc(F)cc4)cs3)n2)cc1,i,0.22

# Reprinted from the part before: 2 compounds, followed by the next part.
SMILES,Anaer choline gr,Anaer choline gr early
Cc1cc(SC(C)C(=O)N2CCc3ccccc32)nc2ccc(S(=O)(=O)N3CCCCC3)cc12 (stereo not given),i,0.27
CCOc1ccc(-c2noc(Cc3nc(-c4ccc(F)cc4)cs3)n2)cc1,i,0.22
Cc1nn(-c2ccccc2)c2c1-c1sc(C(=O)N3CCC(N4CCCCC4)CC3)cc1CC2,i,0.34
COC(=O)c1c(NC(=O)c2cc(=O)c3ccccc3o2)sc2c1CCCC2,i,0.4
O=C(c1cn(-c2cc(N3CCCCC3)ncn2)cn1)N1CCC2(CC1)OCCO2,i,-2.43
Cc1cccc(C(=O)N2c3ccccc3NC(=O)CC2C)c1 (stereo not given),i,0.61
Cc1ccc(-c2nc(CN3CCCC(C(=O)NC(C)C)C3)no2)cc1 (stereo not given),i,-1.49
COc1ccc2c(c1)NC1(CCN(C(=O)NCC3CCCO3)CC1)c1cccn1-2 (stereo not given),i,0.06
Cc1cccc(C)c1NS(=O)(=O)c1cc(C(=O)N2CCCC2)cs1,i,0.95
Cc1cc(C)n(-c2nc3ccccc3nc2N2CCN(c3cccc(C)c3C)CC2)n1,i,-1.43
c1cc(N2CCCC2)ccc1-c1noc(C2CCC2)n1,i,-0.12
Cc1cc(C)cc(NC(=O)CSCc2cc(=O)n3[nH]cnc3n2)c1,i,-0.73
CN1C(=O)C2(CCN(S(=O)(=O)c3cc(F)cc(F)c3)C2)c2ccccc21 (stereo not given),i,-0.72
Cc1cccc(NC(=O)N2CCC(n3cnc4cccnc43)CC2)c1C,i,-0.28
COC(=O)c1ccc(NCC(O)Cn2nnnc2-c2ccccc2)cc1 (stereo not given),i,0.95
CCC(C)NC(=O)c1cnc2sc(C)c(C)n2c1=O (stereo not given),i,0.67
COc1ccc(NC(=O)c2nc(Nc3ccccc3)c3ccccc3n2)cc1OC,i,1.04
COc1ccc(N2CCN(CCCNC(=O)CCCn3c(=O)[nH]c4ccsc4c3=O)CC2)cc1,i,0.19
Cc1ccc(/C=C/c2nc(Cn3cnc4ccccc4c3=O)no2)cc1,i,1.55
Cc1cc2c(cc1NC(=O)c1ccccc1)n(C)c(=O)n2C,i,0.78
Cc1nnc2ccc(N3CCC(C(=O)N4CCN(c5ncccn5)CC4)CC3)nn12,i,-0.67
CC(C)CCNC(=O)C1CCCN(c2ncc(-c3ccc(F)cc3)cn2)C1 (stereo not given),i,1.1

# No new results follow: an excerpt of the list.
SMILES,Anaer choline gr,Anaer choline gr early
Cc1cc2c(cc1NC(=O)c1ccccc1)n(C)c(=O)n2C,i,0.78
Cc1nnc2ccc(N3CCC(C(=O)N4CCN(c5ncccn5)CC4)CC3)nn12,i,-0.67
CC(C)CCNC(=O)C1CCCN(c2ncc(-c3ccc(F)cc3)cn2)C1 (stereo not given),i,1.1

# (more compounds)
SMILES,Anaer choline gr,Anaer choline gr early
CCn1c(=O)c(N2CCC(C(=O)NCCc3c[nH]c4ccccc34)CC2)nc2ccccc21,i,0.31
CC(C)c1cc(C2CCCN2Cc2ccc(F)c(Br)c2)on1 (stereo not given),i,0.58
O=C(Nc1ccc(-c2ccno2)cc1)C1CCN(C(=O)c2ccc(-c3noc(C4CC4)n3)cc2)CC1,i,0.29
CC1CCn2c(nc3cc(C(=O)NC(C)C)ccc32)C1 (stereo not given),i,-0.34
CCN1CCN(C(=O)c2ccc(N3CCNCC3)c(NS(=O)(=O)c3ccc(F)cc3)c2)CC1,i,-1.58
Cc1ccc(-n2nc(N3CCCN(C(=O)c4ccc5c(c4)OCO5)CC3)ccc2=O)cc1,i,-1.47
CCCCC[C@@H](O)/C=C/[C@H]1[C@H](O)CC(=O)[C@@H]1C/C=C\CCCC(=O)O,i,1.12
COCCCNC(=O)CN(C)S(=O)(=O)c1ccc2c(c1)c(=O)n(C)c(=O)n2C,i,1.17
CCCC(O)c1nc2ccccc2n1CCCOc1ccc(C)cc1C (stereo not given),i,0.79
Cc1cc(=O)[nH]c(Nc2ccc(C(=O)O)cc2)n1,i,0
Cc1csc(NC(=O)CSc2nc(C)nc3c2c(=O)n(C)c(=O)n3C)n1,i,-0.24
CC(C)(C)c1cc(NCc2ccccn2)n2ncc(-c3ccccc3)c2n1,i,0.42
C=CCNc1oc(-c2ccc(Cl)cc2)nc1S(=O)(=O)c1ccccc1,i,0.91

# Not all compounds are listed. The share of hits here may be higher or lower than overall.
